Mtb hypoxia rep: reduces hypoxia-regulated biosensor signal in M. tuberculosis; M. tuberculosis hypoxia-regulated fluorescent reporter, fluorescence; fluorescence inhibition, % (concentration not given with the values); 0.1% of 300,000 active; AID 1159583;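 active means 35 to 45% if threefold the growth effect, above 45% if 1.5-fold the growth effect; inactive means the rest, general growth blockers included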;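 further: wells of about 50 µL received 100 nL stock; 0% = vehicle wells and 100% = reference inhibitor wells; whole bacteria with a GFP reporter of the hypoxia response; strong numbers were not always called active; many hits fall short of the cut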
Sa ugtP lethal: growth inhibition of S. aureus ugtP deletion strain. S. aureus RN4220 ugtP deletion, OD600 growth, 16 h; some inactives read as strong as hits. growth inhibition, % (concentration not given with the values). 0.54% of 330,000 active. AID 1259309;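 active means z-score under -3 and OD600 up to 0.15 on both plates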;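 further: plate controls were untreated wells for no effect and antibiotic for full effect; wells of about 80 µL received 100 nL stock; the first replicate is given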
RN4220 kill: kills Staphylococcus aureus RN4220; 0.33% of 330,000 active; AID 1259311; inhibition, % (no concentration beside the values); S. aureus RN4220 growth, OD600, 16 h;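 active means z-score of -3 or lower and OD600 up to 0.18 on both plates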;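 further: plate controls were untreated cells for no effect and reference antibiotic for full effect; stock transfer was 100 nL into about 80 µL; one replicate is shown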
BJeLR lethal: kills HRASV12-expressing BJeLR cells. BJeLR (HRASV12) viability, CellTiter-Glo ATP luminescence, 48 h; reference of the scale not given here. AID 1554. inhibition, % (concentration not given with the values). 0.17% of 300,000 active;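 active means replicate mean above 50%; inconclusive means above 50% but judged a plate artefact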;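 further: 50 nL library stock added to about 25 µL; numbers are from one replicate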
PrP UTR inh: suppresses PrP 5' UTR mRNA reporter expression; 0.35% of 340,000 active; inhibition, % (test concentration not listed); cell-based PrP 5' UTR mRNA reporter, plate reader;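 active means every replicate at 50% or more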;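 further: 0 = median of the neutral control wells; tested in H4 reporter cells; numbers are from one replicate; inactives centre near -14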
Bead autofluor: compound fluorescence in toxin protease inhibitor counterscreen; compound autofluorescence counterscreen, microsphere flow cytometry; active compounds read high; 3.1% of 360,000 active; fluorescence intensity (no concentration beside the values);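 active means at least 3 SD above the mean of all compounds, about 16000 in these data; inconclusive means too few beads counted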;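 further: 100 nL of 1 mM stock went into each well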
Mtb hypoxia rep growth: also measured in Mtb hypoxia rep; calls as there; growth inhibition, %; measured here: M. tuberculosis growth (absorbance);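 0% = vehicle and 100% = reference antibiotic; read after six days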
* hit, by the source's call; ? = inconclusive; / = not tested or not shown; & = joins results of further samples.

1	CCOC(=O)CC1=NN(c2ccccc2)C(=O)/C1=C\c1ccc(N(C)C)cc1
2	Cc1ccc(Cl)cc1NC(=O)c1ccc(NC(=O)CCC(=O)O)cc1
3	Cc1cccc(N(CC(=O)N2CCCC2)S(C)(=O)=O)c1
4	Cn1c(SCc2cccc(F)c2)nnc1-c1ccncc1
5	COc1ccc(Cl)cc1NC(=O)CN(C)C(=O)c1cc(-c2ccncc2)nc2ccccc12
assay / entry	1	2	3	4	5
Mtb hypoxia rep	12	7	-4	0	-4
Mtb hypoxia rep growth	-3	3	7	0	4
Sa ugtP lethal	-4	1	-3	7	-9
RN4220 kill	0.0	-0.2	-0.5	5.7	0.1
BJeLR lethal	0	-5	0	7	-8
PrP UTR inh	-17	-15	-17	-10	-21
Bead autofluor	2031	2389	3850	5678	4573

Rewritten tab-delimited: 3 of the compounds above
cpd	Compound	Mtb hypoxia rep	Mtb hypoxia rep growth	Sa ugtP lethal	RN4220 kill	BJeLR lethal	PrP UTR inh	Bead autofluor
2	Cc1ccc(Cl)cc1NC(=O)c1ccc(NC(=O)CCC(=O)O)cc1	7	3	1	-0.2	-5	-15	2389
3	Cc1cccc(N(CC(=O)N2CCCC2)S(C)(=O)=O)c1	-4	7	-3	-0.5	0	-17	3850
4	Cn1c(SCc2cccc(F)c2)nnc1-c1ccncc1	0	0	7	5.7	7	-10	5678

Next records follow:
6	COc1ccc(/C=C2\SC(=O)N(CC(=O)Nc3ccccc3O)C2=O)cc1OC
7	CCOC(=O)C1CCN(C(=O)c2cccc(NC(=O)C(CC)CC)c2)CC1
8	COc1cccc(C2C(C(=O)Nc3nc4ccccc4s3)=C(C)NC3=C2C(=O)CC(C)(C)C3)c1OC (stereo not drawn)
9	Cc1ccc(NC(=O)CN2C(=O)NC3(CCCCCCC3)C2=O)cc1C
10	CC1CCN(Cc2nc3c(c(=O)n(C)c(=O)n3C)n2CCCc2ccccc2)CC1
assay / entry	6	7	8	9	10
Mtb hypoxia rep	1	9	6	7	/
Mtb hypoxia rep growth	7	6	2	8	/
Sa ugtP lethal	0	9	-19	-1	1
RN4220 kill	3.1	5.8	-6.3	2.6	-0.4
BJeLR lethal	4	2	2	/	10
PrP UTR inh	-35	-14	-4	-10	-10
Bead autofluor	4083	4408	2573	?	6395

11	O=C(Nc1cccc(NC(=O)c2cccs2)c1)c1cccnc1
12	CCN(c1ccc(NC(=O)COC(=O)/C=C/c2cccs2)cc1)C(C)C
13	Cc1nn(C(C)C(=O)N2CCOCC2)c(=O)c2nn(-c3ccccc3)c(C)c12 (stereo not drawn)
14	CCCNC(=O)C(Cc1ccc(C(F)(F)F)cc1)NC(=O)c1ccc2ccccc2n1 (stereo not drawn)
15	CN(C)Cc1cn(CCC(=O)O)c2ccccc12
assay / entry	11	12	13	14	15
Mtb hypoxia rep	-15	-3	13	1	2
Mtb hypoxia rep growth	0	-4	3	4	8
Sa ugtP lethal	1	1	7	13	0
RN4220 kill	1.5	5.3	5.1	3.8	5.7
BJeLR lethal	-7	0	-3	/	-3
PrP UTR inh	-2	-36	-13	-16	-13
Bead autofluor	3826	3842	5774	4176	24504*

16	O=S(=O)(NC1CCCC1)c1ccc(S(=O)(=O)N2CCc3ccccc32)cc1
17	CN(C)C(=S)Nc1ccc2ccccc2c1
18	COc1ccc(Cl)cc1C(=O)Nc1ccc(N(C)C(C)=O)cc1
19	Nc1nc(SCc2c(F)cccc2Cl)[nH]c(=O)c1-c1ccccc1
20	CCCCCc1c(C)c(C#N)c2nc3ccccc3n2c1-n1ccnc1C
assay / entry	16	17	18	19	20
Mtb hypoxia rep	13	14	/	8	0
Mtb hypoxia rep growth	2	7	/	0	17
Sa ugtP lethal	-16	0	2	14	7
RN4220 kill	10	3.8	-4.0	2.2	4.0
BJeLR lethal	/	-5	-9	4	-2
PrP UTR inh	-15	3	-14	-13	-5
Bead autofluor	12664	2157	2695	15200	8645

21	Cc1nc(NC(=O)c2cnccn2)ccc1Br
22	Cc1ccc(S(=O)(=O)N(C)C)cc1-n1c(SCC(=O)Nc2ccc(F)c(F)c2F)nc2ccccc2c1=O
23	Cn1c(=O)[nH]c(=O)c2c1nc1n2CC(O)CN1c1ccccc1 (stereo not drawn)
24	CC(=O)Nc1ccc(Oc2cc(C#N)c(C#N)cc2N2CCCCCC2)cc1
25	COc1ccc(C(C[N+](=O)[O-])c2c(C)[nH]c3ccccc23)cc1OC (stereo not drawn)
assay / entry	21	22	23	24	25
Mtb hypoxia rep	10	10	-7	12	17
Mtb hypoxia rep growth	10	6	-2	11	10
Sa ugtP lethal	5	-6	1	-12	-8
RN4220 kill	0.3	0.0	0.4	-9.0	-2.1
BJeLR lethal	3	0	-3	/	1
PrP UTR inh	-42	-12	-9	-11	2
Bead autofluor	3862	2628	3482	4071	2059

26	Cc1sc2nc(SCCN(C)C)n(-c3ccccc3)c(=O)c2c1-c1ccc(F)cc1
27	COc1cccc(C(=O)Nc2ccc3c(c2)OCO3)c1OC
28	COc1ccccc1C(=O)NN=C(C)CC(=O)Nc1ccc(Nc2ccccc2)cc1
29	COc1ccc(C2=NOC3(CC(=O)N(c4ccc(F)cc4)C3=O)C2)cc1 (stereo not drawn)
30	CC(=O)N1CCc2cc(S(=O)(=O)N3CC(C)CC(C)C3)ccc21 (stereo not drawn)
assay / entry	26	27	28	29	30
Mtb hypoxia rep	2	15	10	5	6
Mtb hypoxia rep growth	-5	0	-3	8	8
Sa ugtP lethal	6	2	20	8	3
RN4220 kill	2.2	3.9	-5.2	9.1	5.9
BJeLR lethal	8	-3	/	0	-4
PrP UTR inh	-8	-124	/	4	4
Bead autofluor	4336	5869	/	4618	5554

A few values from the entries so far:
For Sa ugtP lethal, Cc1ccc(Cl)cc1NC(=O)c1ccc(NC(=O)CCC(=O)O)cc1 reads 1
For Mtb hypoxia rep growth, Cn1c(=O)[nH]c(=O)c2c1nc1n2CC(O)CN1c1ccccc1 (stereo not drawn) reads -2

Returning to the listing; the two compounds before the break are reprinted first.
29	COc1ccc(C2=NOC3(CC(=O)N(c4ccc(F)cc4)C3=O)C2)cc1 (stereo not drawn)
30	CC(=O)N1CCc2cc(S(=O)(=O)N3CC(C)CC(C)C3)ccc21 (stereo not drawn)
31	CCOc1ccccc1C(=O)N[C@H](C(=O)OCc1cc(=O)oc2cc(C)ccc12)C(C)C
32	O=C(CCn1c(=S)[nH]c2ccccc2c1=O)Nc1cccc(Cl)c1
33	Cc1ccc(CNC(=O)c2nn(C)c3c2CS(=O)(=O)c2ccccc2-3)cc1
34	Cc1nc(N2CCC(C)CC2)c2nnn(Cc3ccccc3)c2n1
35	Cc1ccsc1C=NNC(=O)C1CC(=O)N(c2ccc(F)cc2)C1 (stereo not drawn)
assay / entry	29	30	31	32	33	34	35
Mtb hypoxia rep	5	6	5	1	2	10	5
Mtb hypoxia rep growth	8	8	2	-2	-11	12	7
Sa ugtP lethal	8	3	-13	-3	0	64	8
RN4220 kill	9.1	5.9	2.7	3.1	2.7	-4.5	5.1
BJeLR lethal	0	-4	1	4	0	-7	/
PrP UTR inh	4	4	4	-8	-2	-6	/
Bead autofluor	4618	5554	6723	6002	5880	2917	/

36	COc1cc(C2Oc3ccccc3C=C2[N+](=O)[O-])cc(OC)c1OC (stereo not drawn)
37	COCC1CCN(C(=O)c2cc(COc3ccc(OC)c4ccccc34)on2)C1 (stereo not drawn)
38	N#Cc1nc(Cc2cccc3ccccc23)oc1NCc1ccco1
39	CCN1CCN(C(=O)C2CCC(CNS(=O)(=O)c3ccc(NC(C)=O)cc3)CC2)CC1 (stereo not drawn)
40	O=c1oc2ccccc2c(NC(c2ccccc2)c2ccccc2)c1[N+](=O)[O-]
assay / entry	36	37	38	39	40
Mtb hypoxia rep	9	12	2	1	/
Mtb hypoxia rep growth	-5	13	6	-8	/
Sa ugtP lethal	-10	0	-13	9	7
RN4220 kill	4.1	3.6	-1.1	2.8	-0.7
BJeLR lethal	/	12	6	-13	-7
PrP UTR inh	/	-49	-24	-3	0
Bead autofluor	6383	?	22710*	5816	3324

41	CC(C)(C)[C@H]1C=C(C(N)=O)O[C@@H](OCc2ccc(CO)cc2)C1
42	Cc1cc2cc(CNC(=O)CCC(=O)O)ccc2[nH]1
43	Cc1ccccc1NC(=O)c1nn(C)c2c1CS(=O)(=O)c1ccccc1-2
44	CN(C)CC(=O)Nc1cc(C(F)(F)F)ccc1Cl
45	CCOc1ccccc1/C=N/NC(=O)CNC(=O)COc1ccccc1
assay / entry	41	42	43	44	45
Mtb hypoxia rep	/	17	-5	6	/
Mtb hypoxia rep growth	/	8	3	5	/
Sa ugtP lethal	/	-7	2	-2	/
RN4220 kill	/	7.2	0.3	1.8	/
BJeLR lethal	-4	-9	-5	11	9
PrP UTR inh	-3	-29	-15	-7	-8
Bead autofluor	4002	5908	5633	?	4431

Fetched by structure from the list above:
35	Cc1ccsc1C=NNC(=O)C1CC(=O)N(c2ccc(F)cc2)C1 (stereo not drawn)
28	COc1ccccc1C(=O)NN=C(C)CC(=O)Nc1ccc(Nc2ccccc2)cc1
34	Cc1nc(N2CCC(C)CC2)c2nnn(Cc3ccccc3)c2n1
39	CCN1CCN(C(=O)C2CCC(CNS(=O)(=O)c3ccc(NC(C)=O)cc3)CC2)CC1 (stereo not drawn)
20	CCCCCc1c(C)c(C#N)c2nc3ccccc3n2c1-n1ccnc1C
assay / entry	35	28	34	39	20
Mtb hypoxia rep	5	10	10	1	0
Mtb hypoxia rep growth	7	-3	12	-8	17
Sa ugtP lethal	8	20	64	9	7
RN4220 kill	5.1	-5.2	-4.5	2.8	4.0
BJeLR lethal	/	/	-7	-13	-2
PrP UTR inh	/	/	-6	-3	-5
Bead autofluor	/	/	2917	5816	8645

Remaining list, next part.
46	CSC[C@H](NC(=O)COc1cc2c(c3oc(=O)c(C)c(C)c13)CCC(C)(C)O2)C(=O)O
47	Cc1ccc(/C=C/C(=O)NC(=S)N2CCN(C)CC2)cc1
48	CCOC(=O)/C(=C/c1ccc(Cl)cc1)NC(=O)c1ccco1
49	COc1ccc(-c2coc3cc(OC(C)=O)c(OC)cc3c2=O)cc1
50	COCCn1c(C)cc(/C=C2/SC(=O)N(C(C)C(=O)OC)C2=O)c1C (stereo not drawn)
assay / entry	46	47	48	49	50
Mtb hypoxia rep	3	/	-1	/	3
Mtb hypoxia rep growth	-2	/	7	/	10
Sa ugtP lethal	12	1	14	0	7
RN4220 kill	10	4.1	3.7	8.4	3.0
BJeLR lethal	-1	-5	-5	/	2
PrP UTR inh	-7	6	0	-18	-86
Bead autofluor	3121	2481	2452	5780	4049

51	Cn1c(CNC(=O)CNC(=O)c2cccc(Cl)c2)cc(=O)n(C)c1=O
52	O=C(Nc1cccc(F)c1)c1ccc2c(c1)OCCO2
53	O=C(NCCCN1CCN(c2cccc(Cl)c2)CC1)c1ccc(N2CCCC2=O)cc1
54	Cc1ccc(/C=C/S(=O)(=O)NCC(=O)OCC(=O)NCc2ccccc2)cc1
55	O=C(C1=CC(c2coc3ccccc3c2=O)CC(OCc2ccc(CO)cc2)O1)N1CCN(Cc2ccc3c(c2)OCO3)CC1 (stereo not drawn)
assay / entry	51	52	53	54	55
Mtb hypoxia rep	-3	3	11	8	-2&9
Mtb hypoxia rep growth	-9	5	9	1	2&9
Sa ugtP lethal	1	7	-1	7	8&8
RN4220 kill	0.3	3.2	7.1	4.6	6.6&4.3
BJeLR lethal	7	13	-5	2	/
PrP UTR inh	-17	-66	-7	-16	/
Bead autofluor	5664	5792	2694	4963	/

56	Cc1cc(C)n(-c2ccc(C(=O)OCC(=O)c3ccc(Br)s3)cc2)n1
57	Cc1ccc(/C=N/NC(=O)CCCOc2ccc(Cl)cc2Cl)cc1
58	CC(C)=CCC/C(C)=C/CNC(=O)C[C@H]1C[C@H](C(=O)N(C(C)C)C(C)C)[C@@]2(C)c3[nH]c4cc(-c5ccco5)ccc4c3CCN2C1=O
59	CN(C)c1ccc(-c2nc3ccccc3c(=O)[nH]2)cc1
assay / entry	56	57	58	59
Mtb hypoxia rep	/	/	-9	-1
Mtb hypoxia rep growth	/	/	8	9
Sa ugtP lethal	0	/	-4	1
RN4220 kill	4.9	/	-7.4	3.0
BJeLR lethal	-9	-7	/	18
PrP UTR inh	-19	-3	-5	43
Bead autofluor	4602	2345	3960	3576

Screens deposited in PubChem by several laboratories.
